# Compound activity: PubChem, ICCB-Longwood Screening Facility, Harvard Medical School
# AID504770 = E. coli YBA685 growth inhibition, screen for V. cholerae RctB inhibitors; E. coli YBA685 rctB-dependent plasmid, OD600 growth, 3 h; active compounds read low; z-score (test concentration not listed); 130,000 compounds, 0.27% hits; AID 504770;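 active = z-score under -2 on both plates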;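 note: wells of about 30 µL received 100 nL stock; score is relative to mean and SD of the test wells; the first replicate is given; strong numbers were not always called active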
# Ba CapD inh = CapD enzyme inhibition; z-score (concentration not given with the values); AID 492967; 140,000 compounds, 0.23% hits; purified CapD enzyme, fluorescence intensity read-out; active compounds read low; some hits fall short of the stated cut;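 active = z-score under -4 in either of two replicates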;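 note: stock transfer was 100 nL into about 40 µL; score is relative to mean and spread of the plate; one replicate is shown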
# * = called active by the depositor; nt = no result given; & = joins results of further samples. Not a hit list. About 0.39% of those tested had a hit in this group.
item	Compound	AID504770	Ba CapD inh
1	CC(=O)NC1C(OC(C)C)OC(CO)C(O)C1O (stereo unspecified)	-0.15	nt
2	COc1ccc(N2CCN(c3ncnc4sc(C(=O)NCc5ccccn5)c(C)c34)CC2)cc1	nt	-0.685
3	O=C(NCCCN1CCOCC1)c1cc2ccccc2cc1O	-0.1	nt
4	COC(=O)c1ccc(C(=O)OC)cc1	0.3	0.335
5	c1ccc(-c2nnc(C3CCN(CC4OCCO4)CC3)o2)cc1	nt	-0.23
6	O=C(O)c1nsc2ccccc12	-0.7	-1.92
7	O=C(Nc1ccc2nc(NC(=O)C3CCCCC3)sc2c1)c1cc([N+](=O)[O-])cc([N+](=O)[O-])c1	nt	-0.335
8	CC(=O)Nc1ccc(S(=O)(=O)N(C#N)c2nc(C)cc(C)n2)cc1	nt	0.495
9	CCOC(=O)C1CCN(/C=C2/C(=O)NC(=O)N(c3ccc(OCC)cc3)C2=O)CC1	-0.85	0.42
10	O=[N+]([O-])c1cccc(C2(O)CN(c3ccccc3)C3=[N+]2CCCS3)c1 (stereo unspecified)	nt	-0.415
11	Cc1cc(S(=O)(=O)N2CCN(CCO)CC2)c(C)cc1Cl	nt	0.31
12	Ic1cccc(-c2nc(-c3ccc(C#Cc4ccccc4)cc3)c(-c3ccc(C#Cc4ccccc4)cc3)[nH]2)c1	nt	5.64
13	Cc1cc(N2CCN(C(=O)/C=C/C(=O)O)CC2)c2ccccc2n1	-0.55	-1.1
14	O=C(Nc1ccc(Oc2ccccc2)cc1)C1CCCO1 (stereo unspecified)	-0.55	-0.155
15	CCC(=O)n1nc(NCc2ccc(OC)c(OC)c2)nc1NCc1ccc(OC)c(OC)c1	-0.3	-0.015

# Further results follow.
item	Compound	AID504770	Ba CapD inh
16	Cc1cccc(-c2noc(CNC(=O)N3CCOCC3)n2)c1	-0.35	1.03
17	Brc1cc2c(cc1CSc1nnc(Cc3ccccc3)o1)OCCO2	-0.35	nt
18	COc1cccc(CN(C)C(=O)C2CC(=O)N(c3ccc(C)cc3)C2)c1OC (stereo unspecified)	0.05	nt
19	CCN(c1ccc(OC(C)C)cc1)c1nc(C)cc(C)n1	nt	-0.225
20	c1ccc(COc2cccc(-c3nnc4ccc5ccccc5n34)c2)cc1	1.6	27.7
21	O=S(=O)(c1ccccc1)N1N=C(c2cccs2)CC1c1ccc(Br)cc1 (stereo unspecified)	nt	0.06
22	COc1ccc(CC(=O)O)cc1F	0	nt
23	CCOC(=O)C1=C(C)N=c2s/c(=C\c3ccc(OC(C)=O)c(OC)c3)c(=O)n2C1c1cccc([N+](=O)[O-])c1 (stereo unspecified)	nt	-0.685
24	Cc1nn(-c2ccccc2)c(C)c1C(=O)Oc1ccccc1	-0.75	0.21
25	Cc1nc2ccn(Cc3ccco3)c(=O)c2cc1C(=O)NCC1CCCO1 (stereo unspecified)	2.15	22.9
26	COC(=O)c1ccccc1NC(=O)COC(=O)C1CCCCC1	-0.6	nt
27	CCOC(=O)c1c(C)oc2cc(Br)c(OCC#N)cc12	-0.25	-0.445
28	NC(=O)c1ccc([N+](=O)[O-])c(CS(=O)(=O)c2ccc(Cl)cc2)c1	nt	0.265
29	OCCN(CCO)CC(O)Cn1c2ccccc2c2ccccc21 (stereo unspecified)	-0.55	7.81&8.43
30	CCOC(=O)C(C)n1nnc2sc(-c3ccccc3)cc2c1=O (stereo unspecified)	-0.5	3.5

# (cont.)
item	Compound	AID504770	Ba CapD inh
31	O=C(Nc1ccccc1)n1ccc(-c2ccc(-n3ccnc3)cc2)n1	2	0.155
32	O=C(CSc1nnc(-c2ccncc2)o1)N1CCCc2ccccc21	-0.2	nt
33	O=C(CSc1ncc(-c2ccccc2)n1Cc1ccco1)Nc1cccc(I)c1	-0.25	nt
34	Cc1ccc(S(=O)(=O)N2C(=S)SCC2(C)C)cc1	-0.95	nt
35	O=C(CS(=O)(=O)c1ccc(C(F)(F)F)cn1)Nc1ccccc1	-0.45	-0.505
36	COc1ccc(Nc2nc(-c3ccccc3O)nc3ccccc23)c(OC)c1	nt	-0.15
37	COc1cc(C2Nc3ccc4ncccc4c3C3=C2C(=O)CCC3)cc(OC)c1OC (stereo unspecified)	nt	-0.295
38	O=C(O)CC(NC(=O)Cc1ccc(Cl)cc1)c1ccc(F)cc1 (stereo unspecified)	-0.6	-0.4
39	COc1cc(CNC(=O)Cn2nc(C)c3c(C)n(-c4ccccc4)nc3c2=O)cc(OC)c1OC	0.3	-0.945
40	N#CC(C(=O)COc1ccc(Cl)cc1)c1nc2ccccc2[nH]1 (stereo unspecified)	0.05	nt
41	COc1cc(CN(Cc2ccco2)C(=O)NC(COc2ccccc2)c2ccc3c(c2)OCCO3)cc2c1OCO2 (stereo unspecified)	nt	0.065
42	Cc1ccc(C2/C(=C(\O)c3ccccc3)C(=O)C(=O)N2CCN2CCOCC2)cc1 (stereo unspecified)	1.55	-1.21
43	CCNS(=O)(=O)c1ccc(NC(=O)C2CC(=O)N(c3ccc(C)cc3)C2)cc1 (stereo unspecified)	0.15	nt
44	COc1cc(N(C(=O)Cn2nnc3ccccc32)C(C(=O)NCC2CCCO2)c2cccn2C)ccc1-n1cnnn1 (stereo unspecified)	1.55	nt
45	O=C1Cc2cc(C(=O)CSc3nnc(CN4CCCC4=O)o3)ccc2N1	0	nt

# Other entries follow:
item	Compound	AID504770	Ba CapD inh
46	CC1(C)c2ccccc2N(c2ccccc2)C12C=Cc1c(ccc3cc([N+](=O)[O-])ccc13)O2 (stereo unspecified)	nt	0.885
47	Oc1oc(-c2cccc3ccccc23)nc1C=NC1CCCCC1	1.9	0.055
48	Cc1ccc(C=Nc2ccc(C(F)(F)F)cc2)s1	0.2	-0.495
49	NC(=O)c1ccsc1NC(=O)C1CC2C=CC1C2 (stereo unspecified)	2.25	nt
50	Nc1cc(=O)n2c(n1)SCC(O)C2 (stereo unspecified)	1.65	-0.48
51	NC(=O)CN1C(=O)/C(=c2\sc3nc(-c4cccs4)nn3c2=O)c2ccccc21	-0.35	-0.66
52	O=C(CSc1nnc(-c2cccc(Br)c2)o1)c1ccccc1	-0.15	0.425
53	Cc1cc(NC(=O)c2cccs2)c([N+](=O)[O-])cc1C	nt	-0.12
54	Cc1[nH]ncc1C(=O)NC(=O)NN(C)c1ncc(C(F)(F)F)cc1Cl	nt	-0.305
55	CSc1ccc(/C=N/NC=O)cc1	1.35	nt
56	O=C1NC(c2cccs2)Nc2sc3c(c21)CCCC3 (stereo unspecified)	1.1	nt
57	O=C(COC(=O)c1ccc(S(=O)(=O)C(F)F)cc1)c1ccc(F)c(F)c1	-0.3	nt
58	NC(=O)C1CCCN1 (stereo unspecified)	1.6	nt
59	C=CCNC(=O)CN1c2ccccc2C(C)(C)C12C=Cc1c(ccc3ccccc13)O2 (stereo unspecified)	nt	-0.26
60	Cc1cc(C(=O)NC(Cc2ccccc2)C(=O)NNC(=O)OCc2ccccc2)nn1C (stereo unspecified)	nt	-0.72

# Continuation:
item	Compound	AID504770	Ba CapD inh
61	Cc1ccc(CCOC(=O)NC(Cc2ccccc2)C(=O)NC2CCCCC2)cc1 (stereo unspecified)	nt	-0.065
62	O=C1NCCN1C(=O)NC1CCCCC1	0	nt
63	N#C/C(=C/c1ccc(-c2cccc(C(F)(F)F)c2)o1)c1ccc(C(=O)O)cc1	-0.45	-1.99
64	COc1ccc(C(=O)COc2cc(=O)oc3ccccc23)cc1	nt	-0.52
65	Cc1cccc(-n2c(=S)n(CN3CCCC3)c3ccccc32)c1	-1.7	nt
66	CC(=O)Nc1ccc(S(=O)(=O)Nc2nc3ccccc3nc2Nc2ccc(C(=O)O)c(O)c2)cc1	-0.05	nt
67	COc1cc2c(cc1/C=C/C(=O)O)OC(C)C2 (stereo unspecified)	0.2	nt
68	Cc1occc(=O)c1OCc1ccc(Cl)cc1	0.2	0.445
69	CCCCn1c(Cc2ccccc2)nnc1SCC(=O)NC	-0.25	nt
70	CCOC(=O)c1cc(-c2ccc(Cl)s2)[nH]n1	1.7	-0.885
71	Cc1cc2c(cc1C)C(Nc1ccc(F)c(F)c1)=NC(C)(C)C2	nt	-0.285
72	CC(=O)Nc1ccccc1OCC(=O)N(C1CC1)C1CCN(C(C)=O)CC1	nt	-0.475
73	CCCOC(=O)c1ccc(NC(=O)c2ccc(C)c(Br)c2)cc1	-0.05	0.14
74	CC(NC(=O)c1ccccc1NC(=O)c1ccccc1)C(=O)NCc1ccco1 (stereo unspecified)	-1.5	nt
75	O=C(/C=C1\SC(=O)NC1=O)Nc1nccs1	-0.8	-1.6

# Next part.
item	Compound	AID504770	Ba CapD inh
76	O=C(O)CSC1(SCC(=O)O)CCCCC1	0.1	-0.02
77	Cc1c(C)c(C)c(C(=O)c2ccccc2C(=O)O)c(C)c1C	nt	-0.42
78	CCNc1nc2cccnc2s1	-0.85	0.225
79	c1nc(N2CCOCC2)nc(N2CCOCC2)n1	-0.4	0.26
80	CCSCCOC(=O)C1=C(C)NC(=O)NC1c1cc(OC)c(OC)c(OC)c1 (stereo unspecified)	nt	0.47
81	O=C(Nc1ccccc1)NC1Cc2ccccc2C1	nt	0.345
82	CC(C)(C)c1cc(/N=C/c2c(O)[nH]c(=O)[nH]c2=O)n(-c2ccccc2)n1	0.35	nt
83	CN(C)S(=O)(=O)N1CCC(c2nc3ccccc3[nH]2)CC1	-0.25	nt
84	O=C(O)c1cccc(=S)[nH]1	0	nt
85	COc1ccc(NC(=O)C2CCCCN2S(=O)(=O)c2ccc(C(C)(C)C)cc2)cc1 (stereo unspecified)	1.5	-0.885
86	CC1(C)CC(CC(=O)N2CCOCC2)(c2ccccc2)CCO1 (stereo unspecified)	0.3	-0.76
87	Cc1ccc(Cl)c(NC(=O)Cn2c(N)nc(C#N)c2C#N)c1	-0.35	nt
88	CCc1n[n+]2c(C)cc(C)nc2s1	-0.15	-0.35
89	Nc1cc(=O)[nH]c2nnc(SCc3ccccc3)n12	0.2	-0.38
90	O=C(Nc1nc2c(ncn2C2OC(CO)C(O)C2O)c(=O)[nH]1)C(Cc1ccccc1)N1C(=O)c2ccccc2C1=O (stereo unspecified)	nt	0.235

# Additional entries
item	Compound	AID504770	Ba CapD inh
91	COC(=O)c1ccccc1NC(=O)COCc1cc(-c2ccc3c(c2)OCO3)on1	-1.25	1.21
92	O=S(CC(O)(c1ccc(F)cc1)c1ccc(F)cc1)c1ccc(Cl)cc1 (stereo unspecified)	nt	0.27
93	CCSc1nc2ccc(NC(=O)CSc3nnnn3-c3ccccc3)cc2s1	nt	-0.815
94	Cc1ccc(N2C(/N=C3\N=c4[nH]c5ccccc5c4=N3)=NC23C(=O)Nc2ccccc23)cc1C (stereo unspecified)	-0.2	0.5
95	COc1ccc(NC(=O)c2cc3n(n2)C(C(F)(F)F)CC(c2ccc(Cl)cc2)N3)cc1 (stereo unspecified)	nt	-0.36
96	COc1cc(/C=C/C(=O)O)cc(S(=O)(=O)Nc2ccc3[nH]c(=O)[nH]c3c2)c1OC	0.05	nt
97	O=C(OCCc1ccsc1)N1CCN(Cc2ccccc2OCc2ccccc2)CC1	nt	-0.115
98	O=C(OCc1ccccc1)c1ccc(N2C(=O)C3C4c5ccccc5C(c5ccccc54)C3C2=O)cc1 (stereo unspecified)	nt	-0.23
99	O=C(NCCC1=CCCCC1)C1CCCCC1	0	nt
100	CC(C)CN(CC(C)C)C(=O)Cn1c(=O)oc2ccccc21	0.55	0.15
101	Cn1cnc2c1c(=O)n(Cc1cccc(F)c1)c(=O)n2C	nt	16.8
102	c1ccc2[nH]c(SCCN3CCOCC3)nc2c1	0.85	-0.2
103	CON1C(=O)CN(C(C)=O)C1c1ccc(Cl)cc1Cl (stereo unspecified)	nt	0.135
104	O=c1nc(-c2ccccc2)c2cc(Br)ccc2[nH]1	0.85&0.9	0.57
105	O=C(CC1C(=O)Sc2[nH]c(=O)sc21)c1ccc(F)cc1 (stereo unspecified)	-0.25	nt

# Other structures follow.
item	Compound	AID504770	Ba CapD inh
106	O=S(=O)(c1ccccc1)N1CCC(N(C2CC2)S(=O)(=O)c2cccc(C(F)(F)F)c2)CC1	nt	-0.55
107	c1ccc2[nH]c(CN3CCCCCC3)nc2c1	0.9	-0.54
108	CSc1ccc([C@H]2[C@H](C(=O)O)CC(=O)N2Cc2ccccc2)cc1	0.4	nt
109	COC(=O)CN1C=C(C(=O)OC)C(c2ccc(Cl)cc2)C(C(=O)OC)=C1	0.4	1.27
110	COc1ccc(C(=O)COC(=O)c2ccc(N3C(=O)C4C5C=CC(C5)C4C3=O)cc2)cc1 (stereo unspecified)	nt	-0.665
111	Cc1cc(C)c(C)c(OCC(=O)NCC2CCCO2)c1 (stereo unspecified)	-0.4	0.45
112	O=S(=O)(Nc1ccccc1)c1ccc2c(c1)OCCO2	-0.65	nt
113	CC(=O)Nc1ccc(/C=N/N2C(=O)c3ccccc3C2=O)cc1	-0.75	nt
114	COc1cccc(C2CC(c3cccs3)=NN2C(=O)CSc2nnc(CNC(=O)c3cccc(F)c3)n2C)c1OC (stereo unspecified)	nt	12.2
115	CCOc1ccc(C(=O)Nc2cccc(NC(=O)c3ccccc3)c2)cc1Br	0.6	1.4
116	Cc1cc(Cl)ccc1OC(C)C(=O)n1cnc2ccccc21 (stereo unspecified)	0.65	0.075
117	FC(F)(F)C1(C(F)(F)F)N=C(c2cccc(Cl)c2)OC(N2CCCCC2)=N1	nt	-0.1

# Ordered by count of non-hydrogen atoms (high to low): some entries from above
item	Compound	AID504770	Ba CapD inh
95	COc1ccc(NC(=O)c2cc3n(n2)C(C(F)(F)F)CC(c2ccc(Cl)cc2)N3)cc1 (stereo unspecified)	nt	-0.36
101	Cn1cnc2c1c(=O)n(Cc1cccc(F)c1)c(=O)n2C	nt	16.8
50	Nc1cc(=O)n2c(n1)SCC(O)C2 (stereo unspecified)	1.65	-0.48

# Some of the entries so far, screen by screen:
114. COc1cccc(C2CC(c3cccs3)=NN2C(=O)CSc2nnc(CNC(=O)c3cccc(F)c3)n2C)c1OC (stereo unspecified)
115. CCOc1ccc(C(=O)Nc2cccc(NC(=O)c3ccccc3)c2)cc1Br
116. Cc1cc(Cl)ccc1OC(C)C(=O)n1cnc2ccccc21 (stereo unspecified)

entry no.	114	115	116
AID504770	nt	0.6	0.65
Ba CapD inh	12.2	1.4	0.075
